Screens (PubChem)
VCAM-1 augmentation: enhancers of VCAM-1 display on endothelial cells, imaging, high-content imaging, pooled HUVEC, TNFa stimulus (AID 457). Pooled HUVEC, TNFa-induced VCAM-1 immunofluorescence imaging; hits of this screen are not shown here. hit rate 0.2% among 10,000. calls only;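 active = a top-ranked rise in VCAM-1 staining upheld on image or statistical review; inactive = the rest, including candidates rejected on review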;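 note: compounds tested at 5 µM in the well; cells exposed to compound for 24 hours before fixing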
VCAM-1 inhibition: inhibitors of TNFa-induced VCAM-1 surface display, cell-based, plate reader, pooled HUVEC, TNFa stimulus (AID 454). HUVEC TNFa-induced VCAM-1 surface immunofluorescence, plate reader; numbers were filed only for top-ranked candidate wells. hit rate 0.2% among 10,000. inhibition, % at 5 µM;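 active = compound among top-ranked inhibitors of TNF-induced VCAM-1 adhesion protein staining, with the hit upheld by image or statistical review; inactive = the rest, including hits rejected on review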;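 note: 0% = TNFa with vehicle and 100% = cells without TNFa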
FPR ligand: human FPR ligands by binding competition, primary screen, cell-based, FPRL1 counter-screen, flow cytometry | hit rate 0.74% among 24,000 | AID 440, 2006 | FPR-expressing cells, fluorescent ligand binding | fMet-Leu-Phe receptor (Homo sapiens), P21462 | inhibition, %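 (tested at 6.7 µM)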;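 note: 0% = buffer wells and 100% = receptor blocker peptide wells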
Target sequence (P21462 whole entry, looked up): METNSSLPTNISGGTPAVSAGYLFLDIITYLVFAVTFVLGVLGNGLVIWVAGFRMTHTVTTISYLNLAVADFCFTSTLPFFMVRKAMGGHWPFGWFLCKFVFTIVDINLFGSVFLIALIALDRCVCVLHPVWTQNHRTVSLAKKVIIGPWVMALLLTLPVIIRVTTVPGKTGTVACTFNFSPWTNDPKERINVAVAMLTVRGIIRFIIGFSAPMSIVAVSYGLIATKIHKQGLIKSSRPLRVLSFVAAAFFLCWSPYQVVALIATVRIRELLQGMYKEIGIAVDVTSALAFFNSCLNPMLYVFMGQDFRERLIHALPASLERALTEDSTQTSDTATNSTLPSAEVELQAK
FPRL1 ligand: human FPRL1 ligands by binding competition, primary screen, cell-based, FPR counter-screen, flow cytometry. AID 441, 2006. N-formyl peptide receptor 2 (Homo sapiens), P25090. hit rate 0.3% among 24,000. FPRL1-expressing cells, fluorescent ligand binding inhibition. inhibition, %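 (tested at 6.7 µM)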;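 note: 0% = buffer alone and 100% = receptor blocker peptide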
Target sequence (P25090 whole entry, looked up): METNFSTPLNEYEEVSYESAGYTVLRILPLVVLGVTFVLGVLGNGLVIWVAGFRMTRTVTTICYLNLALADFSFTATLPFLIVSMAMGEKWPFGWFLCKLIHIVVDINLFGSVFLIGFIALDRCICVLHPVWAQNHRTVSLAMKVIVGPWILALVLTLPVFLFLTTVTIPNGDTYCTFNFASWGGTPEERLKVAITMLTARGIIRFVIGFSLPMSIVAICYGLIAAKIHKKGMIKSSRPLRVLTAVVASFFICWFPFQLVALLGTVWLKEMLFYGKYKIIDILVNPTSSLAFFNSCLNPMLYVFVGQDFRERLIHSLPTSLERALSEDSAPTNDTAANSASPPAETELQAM
VCAM-1 imaging: inhibitors of TNFa-induced VCAM-1 surface display, imaging, high-content imaging, pooled HUVEC, TNFa stimulus (AID 456); HUVEC TNFa-induced VCAM-1 surface expression, immunofluorescence imaging; numbers were filed only for top-ranked candidate wells; one-dose inhibition, % at 5 µM; IC50 in µM for titrated hits; hit rate 0.2% among 10,000;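 active = top tenth filtered wells with inhibition above zero that passed visual or statistical confirmation; inactive = the rest, including hits rejected on review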;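 note: 0% = stimulated vehicle wells and 100% = unstimulated cells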
The depositor's hits bear a star; i = inactive; u = inconclusive; x = not tested or not shown.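 Rule for the calls, unless noted: active = mean above 30%; inconclusive = self-fluorescent; inactive = the rest.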

SMILES	VCAM-1 augmentation	VCAM-1 inhibition	FPR ligand	FPRL1 ligand	VCAM-1 imaging
CC(C)N1C(=O)CCC1C(=O)NC1CCCC1 (configuration not stated)	x	x	-5	2	x
CC(C)C1N(C(=O)CN2CCCC2)CCN1S(=O)(=O)c1ccccc1 (configuration not stated)	x	x	-2	1	x
COc1ccc(CCNC(=O)CSc2nnc(Cn3c(=O)sc4ccccc43)n2C)cc1OC	x	x	1	-1	x
COc1cccc2sc(N3CCN(c4nc5ccccc5s4)CC3)nc12	x	x	-2	-8	x
Cc1cc(=O)[nH]c(SCc2nc3ccccc3n2Cc2ccccc2)n1	x	x	27	5	x
Cc1ccc(S(=O)(=O)N2CCN(c3nc(C)nc4sc(C)c(C)c34)CC2)cc1	i	i	4	0	i
Cc1ccc(C2C(C(=O)c3ccco3)=C(O)C(=O)N2c2nnc(C)s2)cc1 (configuration not stated)	x	x	-3	1	x
Cc1csc(NC(=O)CSc2nsc(SCC(=O)Nc3nc(C)cs3)c2C#N)n1	i	i	-8	-10	i
CC(=O)N1CCc2cc(S(=O)(=O)NC(CC(C)C)C(=O)N3CCc4ccccc4C3)ccc21 (configuration not stated)	x	x	2	-11	x
COc1ccc(N2C(=O)CCC(C(=O)O)C2c2ccc(F)cc2)cc1 (configuration not stated)	x	x	-2	2	x
COc1ccccc1OCCn1c(=O)sc2ccccc21	i	i	-1	4	i
O=C(C1CCC(CNc2c(N3CCOCC3)c(=O)c2=O)CC1)N1CCN(c2ccccc2)CC1 (configuration not stated)	x	x	-2	2	x
CCc1ccc(NC(=O)CNS(=O)(=O)c2c(C)noc2C)cc1	x	x	1	-1	x
Cc1sc2nc3ccc(N4CCCC4)nn3c(=O)c2c1C	x	x	8	0	x
CCOC(=O)CSc1nc2ccccc2n2cnnc12	i	i	u	-49	i
COc1cc2[nH]c(=O)n(CCCCCC(=O)NCCCN3CCCC3=O)c(=O)c2cc1OC	i	i	7	1	i
COc1ccccc1CNC(=O)c1ccc(NS(=O)(=O)c2c(C)noc2C)cc1	x	x	0	4	x
CCN(Cc1ccccc1)S(=O)(=O)c1ccc(C(=O)Nc2nnc(C3CC3)o2)cc1	x	x	4	2	x
O=C(Nc1ccc2c(c1)OCO2)C1CCN(Cc2cnn(-c3ccccc3)c2-n2cccc2)CC1	x	x	5	2	x
Cc1ccc(-n2c(SCC(=O)N3CCCC3)nc3c(c2=O)SCC3)cc1	x	x	0	-4	x
O=C(Cn1nc(-c2ccc(Cl)cc2)ccc1=O)NCC1CCCO1 (configuration not stated)	x	x	-1	0	x
COc1ccc(NC(=O)C2CCCN(S(=O)(=O)c3cccnc3)C2)c(OC)c1 (configuration not stated)	x	x	12	11	x
COc1ccccc1-c1cc(C(F)(F)F)nc(N2CCCC2)n1	x	x	-14	0	x
CCN1C(=O)CC(N2CCC(Nc3ccc(F)cc3)CC2)C1=O (configuration not stated)	i	i	2	6	i
Nc1ncnc2nc(Sc3ccc(Cl)cc3)[nH]c12	i	i	4	2	i
COc1ccc(OC)c(CCNC(=O)C2CCN(c3nnc(-n4cccc4)s3)CC2)c1	x	x	5	2	x
COc1ccc(C(=O)N(CCCO)Cc2cc3c(C)ccc(C)c3[nH]c2=O)cc1OC	i	i	3	-3	i
O=c1c2ccccc2nc(-c2cccc(Cl)c2)n1O	i	i	14	0	i
O=C(c1cc2c(ccc3ccccc32)oc1=O)N1CCN(CCO)CC1	x	x	-3	2	x
CCCCOC(=O)CNc1nnc(SCC(=O)OCC)[nH]c1=O	i	i	-2	4	i
COc1ccc(C2C(C(=O)c3sc(C)nc3C)=C(O)C(=O)N2CCCn2ccnc2)cc1OC (configuration not stated)	x	x	-3	8	x
CC(C)(C)C(=O)NC1CCN(C(=O)N2CCCC2)CC1	i	i	-3	1	i
CCOCCn1c(-c2ccc(OC)cc2)nc2ccccc21	x	x	-2	-2	x
CC(=O)OCC[N+](C)(C)C	i	i	6	-1	i
COc1cc(C2C(C(=O)c3ccco3)=C(O)C(=O)N2CCc2ccccc2)ccc1O (configuration not stated)	x	x	63*	-2	x
CN1CCN(C(=O)c2ccc3c(c2)N(Cc2cccc(Cl)c2)C(=O)c2ccccc2S3=O)CC1 (configuration not stated)	x	x	-3	-2	x
Cc1cccc(NC(=O)C2CCN(S(=O)(=O)c3c(C)nn(C)c3C)CC2)n1	x	x	2	-5	x
O=C1c2ccccc2C(O)N1Cc1ccco1 (configuration not stated)	x	x	4	-2	x
CC(C)Cc1nc2oc3c(N4CCN(CCO)CC4)ncnc3c2c2c1CCCC2	i	100	2	0	121%
COc1ccc(NC(=O)CN(c2cc(C)cc(C)c2)S(=O)(=O)c2c(C)noc2C)cc1	x	x	-2	2	x
O=C1CC(c2ccsc2)c2cc3c(cc2N1)OCCO3 (configuration not stated)	i	i	-1	2	i
CCN(CC)CCCNC(=O)c1nn(-c2ccc(OC)cc2OC)c(=O)c2ccccc12	i	i	-3	4	i
CC(C)(C)n1ncc2c(=O)n(CC(=O)NCCc3ccccc3)cnc21	i	i	5	2	i
CCC1CCCCN1C(=O)Cn1c(=O)n(CCC(=O)NCc2ccco2)c(=O)c2sccc21 (configuration not stated)	x	x	-2	0	x
CCOC(=O)c1cccc(NC(=O)Cn2cc3c(n2)CCC(C)C3)c1 (configuration not stated)	x	x	0	-5	x
O=C(O)CCCC(=O)Nc1ccc(Br)cc1C(=O)O	i	i	-1	-7	i
O=C1CSC(c2cccc(F)c2)N1c1ccccc1F (configuration not stated)	i	i	6	4	i
CCOc1ccccc1NC(=O)CSc1nccn1-c1ccccc1	x	x	44*	37*	x
O=C(C1CCN(S(=O)(=O)N2CCC3(CC2)OCCO3)CC1)N1CCC(Cc2ccccc2)CC1	x	x	0	-1	x
Cc1cccc(CCNS(=O)(=O)c2ccc3c(c2)oc(=O)n3C)c1	x	x	-8	-3	x
O=C(c1nn2cccnc2c1Cl)N1CCN(c2ccccc2)CC1	i	i	1	-2	i
O=C(NCc1nc2ccccc2[nH]1)c1ccco1	i	i	1	1	i
COC(=O)c1[nH]c2ccc(C)cc2c1NC(=O)CN1CCN(C(=O)c2ccccc2)CC1	i	i	-4	-2	i
COc1cccc(-n2nnc3c(=O)n(Cc4cccc(F)c4)cnc32)c1	i	i	1	6	i
O=c1c2[nH]c3cccc(Cl)c3c2ncn1CCN1CCCCC1	i	i	10	4	i
COc1ccc(C(CC(=O)NCCCN2CCOCC2)NS(=O)(=O)c2ccc(C)cc2)cc1 (configuration not stated)	x	x	1	-2	x
Fc1ccc(-c2csc3nnc(SCc4cccnc4)n23)cc1	i	i	1	8	i
O=C(CSc1nnc(-c2ccccn2)n1Cc1ccccc1)N1CCCC1	i	i	-4	0	i
CNC(=O)CSc1nnc(-c2ccc(S(=O)(=O)N3CCCC3)cc2)n1-c1cccc(C)c1C	i	i	1	-2	i
O=C(Nc1cccnc1)c1cc(-c2ccc3c(c2)OCO3)on1	x	x	4	0	x
(cont.)
SMILES	VCAM-1 augmentation	VCAM-1 inhibition	FPR ligand	FPRL1 ligand	VCAM-1 imaging
O=C(O)C1C2CCC(C2)C1C(=O)NCCCn1ccnc1 (configuration not stated)	i	i	-5	2	i
CCc1cccc(NC(=O)CS(=O)Cc2nc(-c3ccc(C)cc3)oc2C)c1 (configuration not stated)	x	x	2	-2	x
CCN1C(=O)c2cccc3c(S(=O)(=O)Nc4nc(C)cs4)ccc1c23	x	x	2	-11	x
O=C(CSc1nnnn1-c1ccccc1)c1cc2ccccc2oc1=O	i	i	-2	1	i
CCOC(=O)N1CCN(c2c(NCCCN(CC)c3cccc(C)c3)c(=O)c2=O)CC1	x	x	4	-5	x
Cn1c(=O)cc(SCC(=O)Nc2ccc3c(c2)OCO3)c2ccccc21	x	x	-3	4	x
O=C(O)c1ccccc1C(=O)Nc1ccccc1	i	i	-16	-3	i
CCCCC(CCC(=O)Nc1ccccc1C(=O)OCC)C(=O)O (configuration not stated)	x	x	-5	-6	x
Oc1ccc(CNC2CCCCC2)cc1	x	x	1	1	x
Cc1ccc(C(=O)CC2(O)C(=O)N(C)c3ccc(Br)cc32)c(C)c1 (configuration not stated)	i	i	-2	-5	i
COc1cc2c(C(=O)Nc3ccc4c(c3)OCO4)cn(CC(C)C)c(=O)c2cc1OC	x	x	6	2	x
COC(=O)CC(C(=O)Nc1cc(C(=O)OC)cc(C(=O)OC)c1)N1CCN(C)CC1 (configuration not stated)	i	i	-9	6	i
O=C(C1CCCCN1S(=O)(=O)c1ccc(F)cc1)N1CCN(c2ccccc2F)CC1 (configuration not stated)	x	x	-1	5	x
C=CCOC(=O)COc1ccc2c(C)c(C)c(=O)oc2c1C	i	i	5	8	i
Cc1ccc2nc(NC(=O)CNS(=O)(=O)c3ccc(Br)s3)sc2c1	x	x	-4	-1	x
O=C(Nc1cccc(-c2cn3cccnc3n2)c1)c1ccc2c(c1)OCO2	x	x	0	-3	x
O=C1C(c2ccc(F)cc2)N(Cc2ccc3c(c2)OCO3)C(=O)CN1C1CCCCC1 (configuration not stated)	x	x	16	7	x
CC1Cc2ccccc2N1C(=O)c1cccnc1 (configuration not stated)	i	i	1	-4	i
O=C(CCC1N=C2c3ccccc3N=C(SCc3cccc(Cl)c3)N2C1=O)NCc1ccco1 (configuration not stated)	x	x	9	-3	x
Cn1c(=O)c2c(O)cc(=O)[nH]c2n(-c2ccccc2)c1=O	x	x	-3	0	x
Oc1cccc2ccc(Nc3ccccn3)nc12	i	i	1	-8	i
CC(C)[N+](C)(CCOC(=O)C1c2ccccc2Oc2ccccc21)C(C)C	i	i	7	1	i
COc1ccc(-n2c(Cc3cccn3C)nnc2SCC(=O)Nc2ccc(F)cc2F)cc1	x	x	3	3	x
COc1ccc(N2CCN(C(CNC(=O)c3ccco3)c3cccnc3)CC2)cc1 (configuration not stated)	x	x	0	2	x
COc1ccc2cc3cc(C(=O)NCCN4CCN(c5ccccc5F)CC4)oc3nc2c1	x	x	-3	-2	x
CCOC(=O)C1=C(CC)Nc2ccccc2N=C1NC(=O)Cn1cnc2ccccc2c1=O	i	i	4	-4	i
COc1ccc(Cc2nnc3n2N=C(c2cc4ccccc4o2)CS3)cc1OC	i	i	2	5	i
CC(=O)N1C(=O)C2(Nc3ccccc3N2)c2ccccc21	i	i	-2	9	i
CCN(CCCNC(=O)CCCn1c(=O)[nH]c2ccccc2c1=O)c1cccc(C)c1	x	x	3	-3	x
COc1cccc(N2CCN(C(=O)CN(c3ccc(C)cc3)S(=O)(=O)c3c(C)n[nH]c3C)CC2)c1	x	x	-4	5	x

Record cards, as listed above. Values in the order: VCAM-1 augmentation, VCAM-1 inhibition, FPR ligand, FPRL1 ligand, VCAM-1 imaging
`Cc1ccc(C2C(C(=O)c3ccco3)=C(O)C(=O)N2c2nnc(C)s2)cc1` (configuration not stated) reads x, x, -3, 1, x
`CC1Cc2ccccc2N1C(=O)c1cccnc1` (configuration not stated) reads i, i, 1, -4, i
`CC(=O)OCC[N+](C)(C)C` reads i, i, 6, -1, i
`CNC(=O)CSc1nnc(-c2ccc(S(=O)(=O)N3CCCC3)cc2)n1-c1cccc(C)c1C` reads i, i, 1, -2, i
`O=C(O)c1ccccc1C(=O)Nc1ccccc1` reads i, i, -16, -3, i

Quoted from the listing:
FPRL1 ligand result of O=C(Nc1cccc(-c2cn3cccnc3n2)c1)c1ccc2c(c1)OCO2 → -3
FPRL1 ligand result of COc1ccc(N2CCN(C(CNC(=O)c3ccco3)c3cccnc3)CC2)cc1 (configuration not stated) → 2
FPRL1 ligand result of CCOC(=O)C1=C(CC)Nc2ccccc2N=C1NC(=O)Cn1cnc2ccccc2c1=O → -4
FPR ligand result of O=C(CCC1N=C2c3ccccc3N=C(SCc3cccc(Cl)c3)N2C1=O)NCc1ccco1 (configuration not stated) → 9

Additional compounds.
SMILES	VCAM-1 augmentation	VCAM-1 inhibition	FPR ligand	FPRL1 ligand	VCAM-1 imaging
O=c1cc(CO)oc(CN2CCCC2)c1O	x	x	12	10	x
Cc1cc(Nc2ccc(F)cc2C)n2ncnc2n1	x	x	-2	-5	x
COc1ccc(-c2nnc(SCC(=O)c3cc(C)n(Cc4cccs4)c3C)o2)cc1	i	i	-9	0	i
CCOc1ccc(CC(=O)C2C(=O)CCCC2=O)cc1OCC	x	x	1	11	x
CC(=O)Nc1cccc(NC(=O)CSc2nn3c(=O)c(C)nnc3s2)c1	i	i	-5	2	i
Cc1[nH]c(=O)[nH]c(=O)c1S(=O)(=O)N(C)Cc1ccccc1	i	i	-11	0	i
CCN(CC)c1ccc(NC(=O)CC2Oc3ccccc3NC2=O)c(C)c1 (configuration not stated)	x	x	2	1	x

Some of the compounds tested; rates above refer to the full screens.
